High-throughput results: PubChem, PCMD
Biofilm kill mix – mixtures killing C. albicans biofilm | C. albicans biofilm persisters + clotrimazole, fluorescence viability; primary screen in compound mixtures of four per well | inhibition, % at 7.6 µM | actives 0.02% (n = 120,000);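 active = inhibition above 30.3% in the primary screen of four-compound pools, then above 30% when the compound was retested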;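 also: compounds exposed to preformed 24 h biofilms for 48 h; the number belongs to the whole pool; some results filed as inactive read as strong as hits; inactives centre near 12; 0% = biofilm with clotrimazole alone and 100% = kill control; retested singly at about 60 µM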
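Test system: C. albicans CAF4-2 wild-type biofilms; buffer or medium: RPMI/MOPS medium, pH 7.0; schedule: 24 h biofilm formation, then 48 h compound exposure, 37 °C; detection: Alamar Blue fluorescence; measure: percent inhibition of biofilm viability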
* = called active by the depositor; & = joins results of further samples. These rows are one share of the data, so the mix of outcomes need not match the whole.

mol	Biofilm kill mix
COc1cc(/C=N/O)ccc1OCc1ccccc1Cl	-1
O=C(COC(=O)C1CCN(S(=O)(=O)c2ccc3c(c2)OCCO3)CC1)Nc1ccccc1OC(F)F	11
CCOc1ccccc1OCCCC(=O)OCC(=O)Nc1cccc(Cl)c1	26
CC(C)C(NC(=O)c1ccccc1NC(=O)c1ccco1)C(=O)NNC(=O)c1ccncc1 (stereo unspecified)	16
Nc1nc(N)c(C=Nc2ccc(Br)cc2)c(Nc2ccc(Br)cc2)n1	10
CCS(=O)(=O)Nc1cccc(C2=NN(S(=O)(=O)CC)C(c3ccccc3)C2)c1 (stereo unspecified)	21
Nc1ccccc1SCc1c(Cl)cccc1Cl	16
O=S(=O)(NC(=NCCc1ccc(Cl)cc1)c1ccccc1Cl)c1cccs1	-9
CN(C)c1cc[n+](CC(=O)Nc2c(Cl)cc(Cl)cc2Cl)cc1	8
O=C(COC(=O)CNS(=O)(=O)c1ccc2ccccc2c1)Nc1ccccc1Sc1ccccc1	-2
CCOC(=O)c1c(NC(=O)c2ccccc2N(C)S(=O)(=O)c2ccccc2)sc2c1CCCC2	14
Cc1ccc(NC(=O)COC(=O)C(NS(=O)(=O)c2ccc(Cl)cc2)C(C)O)c(Br)c1 (stereo unspecified)	19
O=C(CSc1ccc(Br)cc1)Nc1ccccc1Oc1ccccc1	4
COc1ccc(CCNC(=O)Cn2cnc3ccccc3c2=O)cc1OC	20
COc1ccc(CCNC(=O)C(=O)NCC2OCCN2S(=O)(=O)c2ccc(Br)cc2)cc1 (stereo unspecified)	8
Cc1ccnc2nc(C(=O)Nc3ccc(S(=O)(=O)N4CCCC4)cc3)nn12	13
CC(C)N(CCO)C(=O)CCc1nnc(CCCc2ccccc2)o1	18
O=C(COC(=O)c1ccccc1N1C(=O)C2C3CCC(C3)C2C1=O)c1ccccc1 (stereo unspecified)	16
CCOc1ccc(NC(=O)C(c2ccccn2)N(C(=O)CCl)c2ccc(OC)cc2)cc1 (stereo unspecified)	3
S=c1[nH]nc(-c2cc(-c3ccccc3)n[nH]2)n1/N=C/c1ccc(Br)s1	11
CCOc1ccc(N=C(C)c2ccccc2O)cc1	0
O=C1C2CCCN2C(c2cccs2)N1c1ccc(F)cc1 (stereo unspecified)	11
COc1ccc(CCN(Cc2cc3ccc(C)cc3[nH]c2=O)C(C)=O)cc1OC	26
CN(CCCN1CCCCC1)C(=O)CCc1nnc(C2CCCCC2)o1	14
COc1ccc(C(C)NC(=O)Cc2ccc(Br)cc2)cc1 (stereo unspecified)	2
Cc1ccc(OCC(=O)NC(=S)Nc2ccc(Br)cn2)cc1	9
O=C1/C(=C\c2cccnc2)Sc2ccccc21	18
O=C(CCn1c(=O)oc2ccccc21)Nc1ccc2c(c1)OCCO2	11
Cc1noc2ncnc(N3CCCCC3)c12	5
O=C(c1cccs1)n1nc(-c2cccnc2)nc1NCc1ccco1	4
CN(CC(=O)O)S(=O)(=O)c1ccc(F)cc1	16
O=C(CSc1nnnn1-c1ccc2c(c1)OCCO2)N1CCN(C(=O)c2ccco2)CC1	30
Cc1c(NC(=S)NC(NC(=O)CC(C)C)C(Cl)(Cl)Cl)c(=O)n(-c2ccccc2)n1C (stereo unspecified)	10
CC(C)CN(C(=O)CN1CCN(c2cccc(Cl)c2)CC1)c1c(N)n(CC(C)C)c(=O)[nH]c1=O	8
O=C(/C=C/c1ccc([N+](=O)[O-])cc1)NCCc1ccccc1	9
Cn1c2[n+](c3ccc(Cl)cc3c1=O)Cc1ccccc1-2	5

4 entries drawn at random from those above, as already listed:
mol	Biofilm kill mix
O=C(/C=C/c1ccc([N+](=O)[O-])cc1)NCCc1ccccc1	9
CC(C)CN(C(=O)CN1CCN(c2cccc(Cl)c2)CC1)c1c(N)n(CC(C)C)c(=O)[nH]c1=O	8
O=C(CCn1c(=O)oc2ccccc21)Nc1ccc2c(c1)OCCO2	11
CN(CC(=O)O)S(=O)(=O)c1ccc(F)cc1	16

3 compounds out of the list, sorted by number of heavy atoms, low to high.
mol	Biofilm kill mix
COc1ccc(C(C)NC(=O)Cc2ccc(Br)cc2)cc1 (stereo unspecified)	2
Cc1ccc(OCC(=O)NC(=S)Nc2ccc(Br)cn2)cc1	9
CC(C)CN(C(=O)CN1CCN(c2cccc(Cl)c2)CC1)c1c(N)n(CC(C)C)c(=O)[nH]c1=O	8

Next part:
mol	Biofilm kill mix
Cc1ccc(N(Cc2cc3ccccc3[nH]c2=O)S(C)(=O)=O)cc1	53
CCOC(=O)CSc1ccccn1	22
CCC(C)c1ccccc1NC(=O)Cc1coc2cc3c(cc12)CCC3 (stereo unspecified)	15
CC1Cc2ccccc2N1C1=CC(=O)CCC1 (stereo unspecified)	3
COc1ccc(-c2cn(-c3ccccc3)c3[n+]2CCS3)cc1	4&16
COCCOC(=O)c1nccnc1C(=O)Nc1ccc(S(=O)(=O)N2CCOCC2)cc1	29
N#C/C(=C/c1ccc(-c2ccc(S(N)(=O)=O)cc2)o1)c1nc2ccccc2s1	24
O=C(COC(=O)/C=C/c1ccccc1[N+](=O)[O-])Nc1ccc(OCc2ccccc2)cc1	10
COc1cccc(/C=N/NC(=O)C[n+]2ccccc2)c1OC	12
O=C(O)CS(=O)CC(=O)Nc1cccc(C(F)(F)F)c1 (stereo unspecified)	10
CN(C)c1ccc(NC(=S)N2CCN(c3ncc(C(F)(F)F)cc3Cl)CC2)cc1	9
CC(C)=NOc1nc(N(C)C)nc(N(C)C)n1	-14
COC(=O)c1ccc(Cn2cc(C(F)(F)F)ccc2=O)cc1	14
Cc1cccc(NC(=S)N(CCN(C)C)Cc2cc3cc(C)cc(C)c3[nH]c2=O)c1	11
CCOc1ccc(-n2c(SCc3ccc([N+](=O)[O-])cc3)nnc2-c2ccccc2)cc1	10
Cc1cc(C(=O)COc2cccnc2[N+](=O)[O-])c(C)n1Cc1cccs1	16
Cc1cccc(NC(=S)NCc2ccc3c(c2)OCO3)c1C	11
COc1ccc(-n2c(=O)c3ccccc3n(CC(=O)Nc3cccc(OC)c3)c2=O)cc1	-2
O=C(Cc1cccc2ccccc12)N/N=C/c1ccc(O)c([N+](=O)[O-])c1	18
O=C(Nc1ccc(O)c2c(=O)cc(-c3ccccc3Cl)oc12)c1cccc(Cl)c1	12
CCOCC(=O)N1CCN(c2ccccc2OC)CC1	19
O=c1[nH]cnc2ccccc12	4
CCOc1ccc(/C=N/NC(=O)CNC(=O)c2ccc(S(=O)(=O)N3CCOCC3)cc2)cc1	10
COc1ccc(/C(C)=N/NS(=O)(=O)c2cc(C)ccc2C)c(OC)c1	10
COCCNCc1nc2sc(C)c(-c3ccccc3)c2c(=O)[nH]1	21
CCCN1CCOC(CC(=O)Nc2ccc([N+](=O)[O-])cc2)C1=O (stereo unspecified)	10
O=C(/C=C/c1ccccc1)Nc1cc(S(=O)(=O)N2CCOCC2)ccc1N1CCCC1	13
CC1(C)CC(=O)C2=C(C1)Nc1ccccc1NC2	10
COC(=O)c1ccc(COc2ccccc2/C=N/O)o1	10
Nc1c2c(nc3sc4c(c13)CCCCC4)CCCCC2	17
C/C=C/C=N/Nc1nc(-c2ccc([N+](=O)[O-])cc2)cs1	14
COc1cccc(Nc2nc3ccc(OC)cc3s2)c1	1
COc1ccc(/C=N/NC(=O)c2c([N+](=O)[O-])c(C)nn2C)cc1	13
Cc1cc(NC(=O)c2cc(C(C)(C)C)oc2C)no1	19
CCC(=O)NC(=S)Nc1ccccc1C(=O)NC1CCCCC1	18
CNC(=O)c1ccc2c(c1)nnn2C	-3

Individual results from the entries so far:
COC(=O)c1ccc(COc2ccccc2/C=N/O)o1 @ Biofilm kill mix: 10
CCC(=O)NC(=S)Nc1ccccc1C(=O)NC1CCCCC1 @ Biofilm kill mix: 18

Next records
mol	Biofilm kill mix
Cc1ccc(C(=O)/C=C2/NC(=O)CS2)cc1	9
O=C(Nc1nccs1)c1ccc(N2C(=O)C3CCCCC3C2=O)cc1 (stereo unspecified)	4
C#Cc1ccc([C@@H]2C=C(C(=O)N3CCN(Cc4ccccc4)CC3)O[C@H](OCCCCO)C2)cc1	20
O=c1c(-c2n[nH]c(=S)n2-c2ccccc2)cccn1Cc1cccc(Cl)c1	16
COc1ccccc1N(C(=O)CN1C(=O)c2ccccc2S1(=O)=O)C(C(=O)NCC1CCCO1)c1ccc(F)cc1 (stereo unspecified)	17
Cc1ccc2nsnc2c1N	0
O=C1CC(c2cccs2)Cc2nc(NC(=O)C3CC3)ncc21 (stereo unspecified)	21
Cc1nn(-c2ccccc2)c(Cl)c1/C=N/Nc1nc2ccccc2[nH]1	10
CNC(=O)c1nnsc1S(=O)(=O)c1ccc(Cl)cc1	20
CCOC(=O)C1CCCN(C(=S)NC2CCCCC2)C1 (stereo unspecified)	12
CCOc1ccc(OCc2cccc(C(=O)N3CCCCCC3)c2)cc1	17
Cc1ccc(CNCC(=O)Nc2cccc(S(=O)(=O)NC3=NCCCCC3)c2)cc1	12
O=C(COC(=O)CNC(=O)c1ccccc1)Nc1ccc2c(c1)OCO2	0
CC(C)CC1=NN(C(=O)c2cccnc2)C(O)(C(F)(F)F)C1 (stereo unspecified)	14
Cc1ccc(/C=c2/sc3n(c2=O)CCCN=3)o1	8
CCC(C)NC(=O)COC(=O)c1cccnc1Nc1ccccc1F (stereo unspecified)	11
CC1(C)CC(=O)C2=C(C1)NC(=O)NC2c1ccccc1 (stereo unspecified)	18
CCN(CC)c1ccc(C=C2C(=O)OC3(CCCC3)OC2=O)cc1	15
CCOC(=O)/C(=C/c1ccco1)NC(=O)c1ccc(Br)o1	15
COc1ccc(Cl)cc1NC(=O)c1noc2c1CCCC2	6
O=C(N/N=C1/CCCc2ccccc21)c1cc([N+](=O)[O-])cc([N+](=O)[O-])c1	10
O=C(COc1ccccc1[N+](=O)[O-])N/N=C/c1ccccn1	15
Nn1c(Cc2cccc3ccccc23)nnc1SCc1ccc(Cl)c(Cl)c1	5
S=C(Nc1ccc(Oc2ccccc2)cc1)NC1CCCCCC1	9
Cc1cc(C)cc(NC(=O)C2CC(=O)n3ncnc3N2)c1 (stereo unspecified)	26
C#CCOCCOCCOCCNc1nc(N2CCN(C(=O)[C@H](Cc3cc4ccccc4[nH]3)n3cc([C@@H](N)C(C)CC)nn3)CC2)nc(N2CCN(C(=O)[C@H](CCCCN)n3cc([C@@H](N)CC(C)C)nn3)CC2)n1 (stereo partly specified)	11
Cc1nnc2ccc(-c3cccc(NC(=O)c4ccc(Cl)nc4)c3)nn12	10
O=C(OCc1cc(Cl)ccc1OC(F)F)c1cncc(Br)c1	9
CCOC(=O)CN(Cc1sccc1C)C(=O)Nc1cccc(OC)c1	10
COc1ccc(/C=N/NC(=O)c2ccoc2C)cc1OC	8
Cc1ccc(NC(=O)CN(C)c2ccc(S(=O)(=O)N3CCCC3)cn2)cc1	9
COc1ccc2[nH]cc(CCn3ccc(=O)c(C)c3C)c2c1	13
O=C(Cc1ccccc1)NCCc1ccc(Cl)cc1Cl	17
Cc1ccc(Cl)cc1NC(=O)C1CC(=O)Nc2ncnn21 (stereo unspecified)	19
O=C(CN(C(=O)C1CSC(=O)C1)c1cccc(F)c1)NC1CCCC1 (stereo unspecified)	11
CCOc1ccc(NC(=O)c2ccc(CNc3c(N4CCCC4)c(=O)c3=O)cc2)cc1	5
CC1=C(C(=O)Nc2cccnc2)C(c2cccnc2)n2ncnc2N1 (stereo unspecified)	4
CCOC(=O)Cn1c(=NC(=O)CN2C(=O)CCC2=O)sc2cc(S(N)(=O)=O)ccc21	10
Cc1ccc2c(ccn3cc4c(c(=O)n(C)c(=O)n4C)c23)c1	-1
O=C(Nc1ccccc1-c1ccccc1)NC1CC2CCCC(C1)N2Cc1ccc(F)cc1 (stereo unspecified)	7
CCOc1ccccc1N1CCN(CC(=O)NCCc2ccc(S(N)(=O)=O)cc2)CC1	-16
CN(C)C(CNC(=O)c1cc(S(=O)(=O)N(C)c2ccccc2)ccc1Cl)c1cccs1 (stereo unspecified)	10
CSc1nsc(/C=C/Nc2ccc(F)cc2F)c1C#N	-9
Cc1ccc(NC(=S)N2CCN(c3nccc(C(F)(F)F)n3)CC2)c(C)c1	15
NC1=NC[C@H](c2ccccc2)N1CCCCC1CCCCC1	14
Cc1ccc(C(=O)NCC(=O)OCc2csc(-c3ccccc3)n2)cc1	9
COc1ccccc1N(CC(O)Cn1nc(C)cc1C)S(=O)(=O)c1ccccc1 (stereo unspecified)	0
CCCC1=[N+](CC(C)=O)CCn2c(C)ccc21	12
COc1ccc(NS(=O)(=O)c2cccc(-c3nnc(-c4ccccc4)o3)c2)cc1	13
CS(=O)(=O)N(CC(=O)Nc1ccccc1C(=O)N1CCOCC1)c1ccccc1	16
CC(/C=C/c1ccc2c(c1)OCO2)=N\NC(=O)c1ccccc1	12
COc1cccc(-c2nnn(CC(C)=O)n2)c1	15
CCC1(CC)NC(=O)N(CC(=O)OCC(=O)Nc2ccc(F)c(F)c2F)C1=O	4
Nc1nc(CC(=O)CSc2ccc(Cl)cc2)nc(Nc2ccc(F)cc2)n1	12
COc1ccccc1NC(=O)c1c(Nc2ccccc2C)sc(C(=O)Nc2cccc(Cl)c2)c1N	2
O=C(COC(=O)CNC(=O)c1ccccc1)Nc1cccc(Br)c1	7
